RE007 growth inh: less growth of the S. pombe RE007 Vpr strain; S. pombe RE007 Vpr strain, BacTiter-Glo ATP luminescence, 24 h; control for the full effect not named in the record; Potency, µM (highest dose often 92.2 µM), for inactives: at the top dose activity change, negative = less growth; 0.21% of 360,000 active; AID 651644; active = well fitted falling curve with a large enough effect; inconclusive = small, poorly fitted or top-dose-only effect; inactive = no such curve, though single readings can be large or run the other way;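 note: nearly all actives have a fitted effect of over 50% in size; the assay follows cell death caused by Vpr and the record does not say whether a fall means rescue or toxicity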
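Fission yeast RE007 carrying one integrated HIV-1 vpr copy, seeded at OD 0.01 in PMG+AL medium with 23 nL pinned compound. Grown 24 h at 30 degrees; viability read by BacTiter-Glo luminescence after 5 min.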
2A StopGo: FMDV 2A StopGo reporter, luciferase signal; Potency, µM (highest dose often 57.9 µM), for the others: top-dose signal change, negative = less light; 1.2% of 410,000 active; human cells with a luciferase reporter of 2A StopGo recoding; control for the full effect not named in the record; active = well fitted falling curve with a large enough effect; inconclusive = small, poorly fitted or top-dose-only effect; inactive = no such curve, though single readings can be large or run the other way; tested in HEK293T cells; note: nearly all actives have a fitted effect of over 45% in size; luciferase light after 4 h
Active calls of the source: *; u = inconclusive; [ ] = another dose, or the depositor's remark. % is set by controls: 0 for no effect and ±100 for the full control effect; potency is the fitted concentration of half-maximal effect.

SMILES | RE007 growth inh | 2A StopGo
COc1ccc(C(=O)N2CCCCC2c2cc(C(=O)Nc3ccc(OC)cc3C)no2)cc1 (stereo not drawn) | 7% | 8%
CS(=O)(=O)Nc1ccccc1-c1ccc2nccn2c1 | -2% | -13%
COC(=O)CCC(=O)Nc1nc(-c2ccccc2)cs1 | -4% | 16%
CC(C)c1ccc(CC(=O)N2CCC2(C)C(=O)NS(=O)(=O)c2cccc(OC(F)F)c2)cc1 (stereo not drawn) | 2% | -19%
Cc1ccccc1-c1cnc(C(O)c2ccc(Cl)cc2)[nH]1 (stereo not drawn) | -21%[18.4 µM] | 61%[activator]
C[C@@H]1CN([C@@H](C)CO)C(=O)c2cc(Br)cnc2O[C@H]1CN(C)C(=O)NC1CCCC1 | 1% | -27%
OC(c1ccc(F)c(F)c1)c1ncc(-c2cccc(F)c2)[nH]1 (stereo not drawn) | -26% | 52%[activator]
C[C@H](c1ccccc1)N1C[C@H](COCc2ccccc2)Oc2cc(N3CCC[C@H]3C(N)=O)ccc2S1(=O)=O | 5% | 22%
Cc1cc2oc3ccc(NCCCn4ccnc4)cc3c(=O)c2cc1C | -15% | 21%
COc1cccc(C(C(=O)NCc2ccccc2)N2CCN(c3ccccc3F)CC2)c1OC (stereo not drawn) | 7% | -5%
Cc1ccc(S(=O)(=O)N(C)C[C@H]2OCc3cnnn3CCCC(=O)N([C@@H](C)CO)C[C@H]2C)cc1 | -1% | -4%
CN(C)CCN(C(=O)C1CCCCC1)c1nc2cc3c(cc2s1)OCCO3 | -7% | 39%[activator]
CCSc1nnc(NC(=O)C2CCCN(C(=O)c3ccc(Cl)cc3)C2)s1 (stereo not drawn) | -6% | 0%
CCc1nc2ccc(C(=O)NCCN3CCOCC3)cn2c1N(C=O)Cc1ccc(OC)cc1 | 3% | -7%
O=C(Nc1ccc(C(=O)N2CCCC2)cc1)c1cccc(C(F)(F)F)c1 | 1% | -1%
CCCCC(=O)Nc1cc(OC)c(NC(=S)Nc2ccc(OC)cc2)cc1OC | 6% | 5%
C[C@@H]1CN([C@H](C)CO)C(=O)c2cc(NC(=O)Nc3ccc(F)cc3)ccc2O[C@@H](C)CCCCO[C@H]1CN(C)Cc1ccc(C(=O)O)cc1 | -12% | -21%
CC1(C(=O)NS(=O)(=O)c2cccc(C#N)c2)CCN1C(=O)c1ccc(C2CCCCC2)cc1 (stereo not drawn) | 3% | -2%
NS(=O)(=O)c1ccc(CCNC(=O)C2CCCN2C(=O)c2cccs2)cc1 (stereo not drawn) | -9% | -19%
COc1ccc(S(=O)(=O)N2CCOCC2)cc1C(=O)Nc1cccc(C(=O)NC2CC2)c1 | -3% | -25%
CCOC(=O)C1(C(=O)OCC)COC(=O)C1CN1Cc2cc3ccccc3nc2C1 (stereo not drawn) | -23% | 28µM*
COc1ccc(C(C)=NNS(=O)(=O)c2ccc(C)cc2)cc1OC | 3% | 74%[activator]
CCCS(=O)(=O)NC(=O)C1(C)CCCN(C(=O)c2ccnc(Cl)c2)C1 (stereo not drawn) | -11% | -1%
O=C(Nc1cccc(C(F)(F)F)c1)c1csc([C@@H]2O[C@H](CO)[C@H](O)[C@H](O)[C@H]2O)n1 | -7%[18.4 µM] | -17%
c1csc(-c2nn3c(C4CCCCC4)nnc3s2)c1 | 9% | 2%
O=C(OCCOc1ccccc1)c1cc(S(=O)(=O)N2CCOCC2)c(Cl)cc1Cl | -11% | u
COc1cc(OC)c2c3c(c(C4CCCCC4)nc2c1)CCC3 | -22% | -17%
CC1(Cc2cccc(C#N)c2)C(=O)Nc2c(Cl)cccc21 (stereo not drawn) | 0%[18.4 µM] | -19%
CCOC(=O)[C@]12CCCC=C1N(Cc1ccccc1)C(=O)[C@H](CC(=O)NCc1ccccc1)C2 | -8% | -3%
Brc1ccc2nc(C3CCCCC3)c(Cc3ccsc3)n2c1 | u | -9%
CCC(CC)C(C(=O)NCc1ccccc1)N1CCN(c2cccc(C)c2C)CC1 (stereo not drawn) | 11% | -11%
COc1ccccc1-c1cnc(C(O)c2ccc(C)cc2)[nH]1 (stereo not drawn) | u | 38%[activator]
O=C(NCC(F)(F)F)C1C(=O)Nc2ccccc2C(=O)N1C1CCCC1 (stereo not drawn) | 10% | -13%
COc1ccc(C(=O)N(C)Cc2ccc(OC)c(OC)c2OC)cc1S(=O)(=O)N1CCOCC1 | -3% | -9%
CC1(C(=O)NS(=O)(=O)c2cccc(F)c2)CCN1C(=O)C1(c2ccc(Cl)cc2)CCC1 (stereo not drawn) | 31% | 11%
Cc1ccc(C(=O)OCC(=O)c2ccc(Br)cc2)cc1S(=O)(=O)N1CCOCC1 | 0% | u
COC(=O)[C@]12CCCCC=C1N(Cc1ccc3c(c1)OCO3)C(=O)[C@H](CC(=O)N1CCN(C(=O)C3CC3)CC1)C2 | -4% | -11%
C[C@@H]1CN([C@H](C)CO)S(=O)(=O)c2ccc(C#CC3CCCC3)cc2O[C@H]1CN(C)C(=O)Cc1ccccc1 | 14% | u
CS(=O)(=O)Nc1cccc(NC(=O)c2cccc3c(-c4ccc(F)c(F)c4)coc23)c1 | 8% | 0%
COc1ccc(NC(=O)CN(C)C(=O)c2ccc3c(c2)CC(c2ccccc2)OC3=O)cc1 (stereo not drawn) | -11% | -20%
COc1ccc(F)cc1-c1cc(C(=O)NCc2ccccc2)[nH]n1 | 18% | 0%
O=C(CS(=O)(=O)c1ccccc1)Nc1ccccc1Br | 1% | u
O=C1c2cc(O)cc(O)c2C(=O)c2c1cc(O)c([C@@H](CO)CCO)c2O | -13% | 3%
CC(C)C1C(=O)N(Cc2cn(CCC3OCCO3)nn2)CCS(=O)(=O)N1Cc1ccc(-c2ccc(F)nc2)cc1 (stereo not drawn) | -7% | u
CC(C)C(N)c1csc(Nc2nncc3ccccc23)n1 (stereo not drawn) | 1%[18.4 µM] | 24%
C[C@@H](c1ccccc1)N1C[C@H](COCc2ccccc2)Oc2cc(N3CC[C@H](O)C3)ccc2S1(=O)=O | -21% | 9%
C=C1C2=C(C(=O)N1OC)[C@@H](O)[C@@](C)(O)[C@@H](CCCCC)O2 | 4% | -16%
CCN1C(=O)[C@H]2[C@@H](c3ccc(C)cc3)N3C(=O)N(c4cccc(Br)c4)C(=O)[C@@]3(C)[C@H]2C1=O | -4% | 1%
c1ccc2c(c1)nc(N1CCCCCC1)c1nncn12 | -10% | -29%
Cc1ccc2nc(C(C)(C)C)c(Cc3cccc(Cl)c3)n2c1 | u | 17%

Whole records, looked up by structure.
O=C(NCC(F)(F)F)C1C(=O)Nc2ccccc2C(=O)N1C1CCCC1 (stereo not drawn) is listed as RE007 growth inh = 10%; 2A StopGo = -13%
Cc1ccc(S(=O)(=O)N(C)C[C@H]2OCc3cnnn3CCCC(=O)N([C@@H](C)CO)C[C@H]2C)cc1 is listed as RE007 growth inh = -1%; 2A StopGo = -4%
CC(C)c1ccc(CC(=O)N2CCC2(C)C(=O)NS(=O)(=O)c2cccc(OC(F)F)c2)cc1 (stereo not drawn) is listed as RE007 growth inh = 2%; 2A StopGo = -19%

Next entries:
SMILES | RE007 growth inh | 2A StopGo
O=C(NN1CCCCC1)NN1CCCCC1 | -5%[18.4 µM] | -7%
COc1ccc(-c2cc3nc(C)c(C)c(N4CCN(C(=O)c5ccoc5)CC4)n3n2)cc1 | -18% | -13%
COc1ccc(-n2nnnc2C2(C)CCC(=O)N2Cc2ccccc2)cc1 (stereo not drawn) | 1% | -6%
CC(=Nc1ccccc1)C1=C(O)C(Cc2ccc(F)cc2)NC1=O (stereo not drawn) | -6% | 32%[activator]
CC(=O)c1ccc(Nc2ncnc3ccc(Br)cc23)cc1 | 4% | 6%
CCN(CC)C(=O)c1ncn2c1c(=O)[nH]c1ccccc12 | -21% | -9%
CC1(C(=O)NS(=O)(=O)c2ccc(C#N)cc2)CCN1C(=O)Cc1ccc(Cl)cc1Cl (stereo not drawn) | 9% | -8%
O=C(Nc1ccccc1)C1=C(Nc2ccccc2)CSC1 | -4% | 9%
Cc1nn(C)c2c1NC(=O)CS2 | -22% | -17%
COc1ccc(C)cc1-n1c(SCC(=O)N2CCOCC2)nc2ccccc2c1=O | -7% | -23%
COc1ccc(S(=O)(=O)NC(=O)C2(C)CCN2C(=O)Cc2ccc(C(C)(C)C)cc2)cc1 (stereo not drawn) | 1% | -7%
CC1Cc2[nH][nH]c(=O)c2C(C2CCCC2)O1 (stereo not drawn) | 8% | -9%
O=C(Nc1nnc([C@H]2C[C@H](O)[C@@H](CO)O2)s1)Nc1ccccc1C(F)(F)F | 2% | -6%
CCN(CC)c1ncnc2c1ncn2[C@H]1CN(Cc2ccco2)C[C@@H](CO)O1 | -1% | 1%
COCCNC(=O)C1CCCN(C(=O)c2ccnc(Cl)c2)CC1 (stereo not drawn) | 3% | -15%
CCc1ccc(C(O)c2ncc(-c3cccc4ccccc34)[nH]2)cc1 (stereo not drawn) | 4% | -9%
CCNC(=O)C1CCCN(C(=O)c2ccco2)CC1 (stereo not drawn) | 0% | 1%
Cc1cccc(C(=O)N[C@@H]2c3ccccc3C[C@@H]2O)n1 | 6% | 13%
Cc1ccc(S(=O)(=O)N(C)C[C@H]2OCCCC[C@@H](C)Oc3ccc(NC(=O)Cc4ccccc4)cc3C(=O)N([C@H](C)CO)C[C@@H]2C)cc1 | 11% | -2%
CC1(C(=O)Nc2cccc3ccccc23)CCN1C(=O)C1(c2ccccc2)CCCC1 (stereo not drawn) | -14% | -23%

Grouped by structure, those above containing two or more sulfur atoms
SMILES | RE007 growth inh | 2A StopGo
CCSc1nnc(NC(=O)C2CCCN(C(=O)c3ccc(Cl)cc3)C2)s1 (stereo not drawn) | -6% | 0%
NS(=O)(=O)c1ccc(CCNC(=O)C2CCCN2C(=O)c2cccs2)cc1 (stereo not drawn) | -9% | -19%
c1csc(-c2nn3c(C4CCCCC4)nnc3s2)c1 | 9% | 2%

Additional entries follow:
SMILES | RE007 growth inh | 2A StopGo
C[C@H]1CN([C@@H](C)CO)C(=O)CCCn2nncc2CO[C@@H]1CN(C)S(=O)(=O)c1ccc(-n2cccn2)cc1 | -4% | -10%
Cc1cc(/C=C(\C#N)C(=O)NCc2ccccc2)c(C)[nH]1 | 0% | 48%[activator]
CCOC(=O)N(C)c1c(CC)nc2c(OCc3ccc(C(F)(F)F)cc3)cccn12 | -9%[18.4 µM] | u
CC(C)c1cn(CC[C@@H]2CC[C@@H](NC(=O)C3CCCCC3)[C@@H](CO)O2)nn1 | -6% | -20%
COc1ccc(CCN2CC(C(=O)OCC(=O)NCc3ccccc3Cl)CC2=O)cc1OC (stereo not drawn) | -2% | -6%

Some of the compounds tested. The share of hits here may be higher or lower than overall.
